Compound activity (PubChem BioAssay)
HNF4A DNA FP – change in binding of human HNF4A to DNA, primary screen, biochemical, fluorescence polarization, FITC-DNA; Hepatocyte nuclear factor 4-alpha (Homo sapiens), P41235; 1 h; activity change, % at 10 µM; 360,000 tested, 0.3% active; in the data active = activity change above about 30%, passing the limit was not always enough;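 also: controls were the assay level and a saturating level of protein; the project sought stronger binding though the title names inhibitors; some compounds called inactive have numbers as strong as hits; positive values seem to mean higher polarization but the record does not say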
Target sequence (P41235 whole entry, looked up): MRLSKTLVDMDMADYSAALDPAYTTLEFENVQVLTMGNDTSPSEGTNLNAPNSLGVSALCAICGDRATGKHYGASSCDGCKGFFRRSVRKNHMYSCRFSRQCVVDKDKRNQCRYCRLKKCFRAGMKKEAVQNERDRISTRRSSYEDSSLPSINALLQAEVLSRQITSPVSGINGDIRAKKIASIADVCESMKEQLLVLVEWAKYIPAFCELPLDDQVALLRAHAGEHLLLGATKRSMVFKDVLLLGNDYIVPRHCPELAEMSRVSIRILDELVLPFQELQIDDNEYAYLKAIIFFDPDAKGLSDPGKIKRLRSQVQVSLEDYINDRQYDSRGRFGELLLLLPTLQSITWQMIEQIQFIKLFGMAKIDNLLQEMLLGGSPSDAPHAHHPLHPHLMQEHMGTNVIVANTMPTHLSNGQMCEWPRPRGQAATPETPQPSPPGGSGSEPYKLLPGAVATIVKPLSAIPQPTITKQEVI
B2AR ag – beta2AR agonists driving receptor internalization, primary screen, cell-based, FAP fluorogen, flow cytometry | Beta-2 adrenergic receptor (Homo sapiens), P07550 | AID 504454, 2011 | Am2.2-beta2AR cells; reference of the scale not given here | response, % (test concentration not listed) | 340,000 tested, 0.43% active;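 active = response above a set limit, near 3 SD of response in nonfluorescent compounds, cut at about 42% in these data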;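 also: stock transfer was 100 nL into about 11 µL; a reference agonist was the positive control; negative values mostly stem from fluorescent compounds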
A1 inh – caspase 3/7 activation in MEF A1-2A-BIM cells, primary screen, A1 inhibitor project, cell-based, luminescence, HTS; 330,000 tested, 0.066% active; Caspase-Glo 3/7 luminescence, 3 h; percent of clofoctol response, vehicle zero; AID 2462, 2010; caspase activation, % (no concentration beside the values);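 active = over half of replicate activation scores above 10%, or exactly half above 10 with the replicate mean above 10; inconclusive = replicate mean below 10 yet half the replicates above 10; inactive = over half of replicates below 10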;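 also: wells of about 30 µL received 50 nL stock; many hits fall short of the cut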
UCH37 DUB inh – inhibitors of human UCH37 deubiquitinase, primary screen, biochemical, Ub-AMC cleavage, fluorescence; Ubiquitin carboxyl-terminal hydrolase isozyme L5 (Homo sapiens), Q9Y5K5; purified proteasome/UCH37; inhibition, % (no concentration beside the values); 330,000 tested, 0.33% active;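 active = mean of two replicates above 20%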;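 also: 0% = compound-free wells with enzyme and 100% = wells lacking proteasome; stock transfer was 100 nL into about 20 µL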
Target sequence (Q9Y5K5 whole entry, looked up): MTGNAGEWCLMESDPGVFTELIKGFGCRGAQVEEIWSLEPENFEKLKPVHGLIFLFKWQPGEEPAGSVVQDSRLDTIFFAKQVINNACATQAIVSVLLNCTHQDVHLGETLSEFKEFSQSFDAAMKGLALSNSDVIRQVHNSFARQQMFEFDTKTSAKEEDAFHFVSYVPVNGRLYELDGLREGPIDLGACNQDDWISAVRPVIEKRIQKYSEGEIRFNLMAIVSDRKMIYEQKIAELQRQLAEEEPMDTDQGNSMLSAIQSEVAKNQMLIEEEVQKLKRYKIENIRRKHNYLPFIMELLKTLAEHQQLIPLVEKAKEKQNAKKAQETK
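Reagent: Ub-AMC substrate; assay system: Proteasome-associated human UCH37 deubiquitinase; controls: no-proteasome and no-compound wells; read-out: % inhibition of Ub-AMC cleavage fluorescence; timing: 30 min preincubation with enzyme, 25 min cleavage at room temperature; signal: AMC fluorescence from Ub-AMC cleavage, excitation 355 nm, emission 460 nm; buffer or medium: Tris-HCl pH 7.4 plus ovalbumin, ATP-MgCl2, DTT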
Vif TR-FRET – inhibitors of Vif binding to APOBEC3G peptide, primary screen, biochemical, TR-FRET, GST-Vif 1-94, biotin-A3G peptide, dose response retest (AID 1117319). TR-FRET GST-Vif / biotin-A3G peptide binding; higher % means a stronger effect; test concentration not given here; strong numbers were not always called active. 260,000 tested, 0.57% active. one-dose inhibition, %; IC50 in µM for titrated hits. Virion infectivity factor (Human immunodeficiency virus type 1 group M subtype B (isolate …;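 active = above the screen mean plus three standard deviations and confirmed in dose response; inconclusive = results disagree or hit not tested in dose response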;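 also: Vif residues 1-94 fused to GST binding biotinylated APOBEC3G peptide 110-148; 0% = full assay without inhibitor and 100% = GST in place of GST-Vif; retest series ran down from 100 µM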
LANA-H2B inh – blockers of LANA interaction with H2A/H2B – biochemical, FP readout, HTS, primary screen. cell-free LANA-H2A/H2B peptide, fluorescence polarization. 320,000 tested, 0.6% active. Protein LANA1 (Human herpesvirus 8 type P (isolate GK18)), Q9QR71. AID 2629, 2010. inhibition, % (test concentration not listed); in the data active = inhibition mostly above about 10%, no sharp cut-off; inactive = mostly below about 6.7%;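 also: stock transfer was 7.5 nL into about 10 µL; 0% = median of vehicle wells and 100% = median of positive control wells; one replicate is shown; the record names a cut of 25% in any replicate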
E coli growth – E. coli growth inhibition, primary screen, OD600 | Escherichia coli growth, 23 h; stronger effect = lower value | OD600 absorbance (no concentration beside the values) | 330,000 tested, 0.21% active | AID 1053175, 2014;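 active = OD600 absorbance below the run mean of sample wells minus 3.6 SD, in any replicate, cut at about 0.56 in these data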;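 also: stock transfer was 300 nL into about 60 µL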
* hit, by the source's call; i = inactive; u = inconclusive; x = not tested or not shown; & = joins results of further samples.

SMILES	HNF4A DNA FP	B2AR ag	A1 inh	UCH37 DUB inh	Vif TR-FRET	LANA-H2B inh	E coli growth
Fc1ccccc1Nc1nc2ccccc2n2nnnc12	1.5	-7.7	-3.8	2.6	7.2%	-2.2	0.735
CCSc1nc(-c2ccc(OC)cc2)cc(-c2ccc(OC)cc2)c1C#N	1.3	3.2	0.7	-62.4	-6.3%	5.9	0.709
CCOC(=O)c1c(C)nc2c(c1C)/C(=N/O)CC(C)(C)C2	-3.4	-1.9	0.3	x	0.4%	-0.6	x
COc1ccc(-c2cc(C(=O)OCC(=O)Nc3ccc4c(c3)OCO4)c3ccccc3n2)cc1	2.4	-10.2	-2.6	-146.3	x	3.4	0.695
Cc1cccc(CSc2nc3c(cc2C#N)CCC3)c1	0.4	-11.7	-0.5	2.9	2.5%	-0.2	0.727
Cc1ccc(NCc2cccnc2)cc1	-0.2	2.8	0.6	-0.6	1.2%	-2.0	0.734
N#CC(C#N)=C(N)Nc1cccc(Cl)c1	-1.7	-1.8	0.8	1.7	x	-2.9	0.638
CCOc1ncccc1C(=O)OCc1c(Cl)cccc1Cl	-1.9	1.3	1.1	3.8	12.8%	-3.5	0.683
O=C(OCC(=O)N1CCN(c2ccccc2)CC1)c1cc(Cl)ccc1[N+](=O)[O-]	0.9	-22.1	0.6	7.3	x	-1.1	0.681
CC(C)NC(=O)CN(c1cccc(Br)c1)S(C)(=O)=O	-0.5	-1.9	0.1	1.3	3.9%	i	0.691
Cc1ccc(NC(=O)CSC(N)=O)cc1Cl	-2.3	11.8	-0.6	2.2	2.7%	-1.4	0.745
CCc1nnc(NS(=O)(=O)c2ccc(N3C(=O)c4ccccc4C3=O)cc2)s1	4.6	-3.7	0.1	0.9	-4.5%	2.2	0.655
COc1ccc2cc(C(c3nnnn3CCc3ccccc3)N3CCC(O)CC3)c(=O)[nH]c2c1 (stereo not drawn)	55.2*	-3.6	0.1	1.9	-1.9%	-489.5	0.757
CCN(CC)S(=O)(=O)c1cc(C(=O)n2cccn2)c(Cl)cc1Cl	3.8	-6.9	0.3	4.6	1.7%	-5.2	0.678
CCCn1nc(C(=O)NCc2ccccn2)c2ccccc2c1=O	1.8	1.1	1.4	1.1	-0.8%	1.0	0.749
COc1ccc2c(c1)CCN1C2CCN2C(=O)CCC21 (stereo not drawn)	-3.4	4.2	-0.4	x	0.0%	0.8	x
COc1ccc(/C=N/NC(=O)Cn2cnc3ccccc3c2=O)cc1	4.4	-0.8	0.2	x	8.3%	0.6	x
Cc1nc(NC(=O)c2ccc(Cl)cc2)nc2cc3c(cc12)OCO3	2.5	-8.4	0.3	-58.9	-65.2%	0.1	0.715
COCCNc1ncnc2c1cnn2Cc1ccc(Cl)cc1	-3.9	3.2	1.1	2.1	5.4%	-0.9	0.716
O=C(CNC(=O)OCc1ccccc1)Oc1ccc2ccc(=O)oc2c1	3.6	-10.7	0.1	i	7.0%	-4.7	0.633
O=C(N/N=C\c1ccncc1)c1ccccc1O	-3.2	1.8	-1.1	x	28.4%	-1.3	x
O=C(O)c1ccn(CSc2cc(Cl)ccc2Cl)n1	2.3	-0.2	-1.1	-1.5	-3.2%	3.3	0.713
N#CC1=C(N)OC2=C(C(=O)CCC2)C12CCC1(CC2)OCCO1	0.4	0.0	-1.1	-0.2	9.9%	-2.1	0.657
CCCC(=O)Nc1c(-c2cccc(C)c2)c(=O)c2ccccc2n1C	0.3	-3.8	-0.2	-4.0	-1.0%	2.0	0.674
O=c1[nH]c(C2CCN(S(=O)(=O)c3ccc4c(c3)OCCO4)CC2)nc2c1nnn2Cc1ccccc1F	1.1	1.3	0.4	x	x	4.7	x

Reformatted: 2 of the compounds above.
Order of results: HNF4A DNA FP	B2AR ag	A1 inh	UCH37 DUB inh	Vif TR-FRET	LANA-H2B inh	E coli growth
- O=C(OCC(=O)N1CCN(c2ccccc2)CC1)c1cc(Cl)ccc1[N+](=O)[O-]
    0.9	-22.1	0.6	7.3	x	-1.1	0.681
- CC(C)NC(=O)CN(c1cccc(Br)c1)S(C)(=O)=O
    -0.5	-1.9	0.1	1.3	3.9%	i	0.691

Next compounds.
SMILES	HNF4A DNA FP	B2AR ag	A1 inh	UCH37 DUB inh	Vif TR-FRET	LANA-H2B inh	E coli growth
CCc1noc(C)c1C(=O)NCCc1c[nH]c2ccccc12	-3.9	0.9	-1.3	2.2	0.4%	-2.5	0.632
CCOC(=O)/C=C/COc1ccccc1[N+](=O)[O-]	-1.0	4.1	0.5	3.1	3.4%	3.7	0.616
CCc1ccnc(NC(=O)Nc2ccc(OCc3ccccc3)cc2)c1	0.2	-2.2	0.1	2.5	-4.4%	-3.4	0.717
CN1C/C(=C/c2ccsc2)C(=O)/C(=C/c2ccsc2)C1	1.4	7.5	-0.4	2.1	3.5%	3.8	0.68
COc1ccccc1NC(=O)Nc1nc(C(C)(C)C)cs1	-1.5	11.6	0.9	4.6	7.4%	-5.3	0.728
C[C@@H]1COC(=O)[C@@H](Cc2ccc(F)cc2)C/C=C\C[C@@H](CC(=O)N[C@H](CO)Cc2ccccc2)C(=O)N1	1.3	-3.9	-0.5	-0.6	x	-5.0	x
CCS(=O)(=O)Nc1ccc2c(c1)N(C(C)=O)c1ccccc1CC2	1.0	-0.1	0.2	-0.3	0.2%	-0.3	0.673
Cc1cc2c(NC(=O)CC(C)(C)CC(=O)O)cccc2nn1	-1.1	-8.0	0.2	11.1	u	1.8	0.673
CCOc1ccccc1NC(=O)NCc1ccccn1	0.7	-4.6	2.5	0.6	x	2.8	0.698
CS(=O)(=O)c1ccc(NC(=O)CCCc2nc3ccccc3c(=O)[nH]2)cc1	2.0	-4.3	0.2	0.0	5.0%	-1.2	0.626
CCN(CC)C1CCN(C(=O)c2cc(COc3ccc(-n4cncn4)cc3)on2)C1 (stereo not drawn)	1.6	-5.6	-1.0	0.2	3.6%	1.4	0.659
Nn1cc(-c2ccccc2)nc1SCC(=O)NCCc1ccccc1	1.6	-1.1	0.8	3.2	10.6%	-2.9	0.699
O=C(CSc1ccc(Br)cc1)Nc1ccccc1Oc1ccccc1	0.9	19.3	0.1	-1.1	2.8%	x	0.703
O=C(CSc1nc2[nH]ncc2c(=O)[nH]1)N1CCCCC1	0.9	-5.3	0.1	1.2	x	0.9	0.7
Cc1n[nH]c(C)c1S(=O)(=O)N1CCCC(C(=O)NCC2COc3ccccc3O2)C1 (stereo not drawn)	-1.0	6.2	0.1	1.9	13.1%	1.1	0.745
CCOC(=O)C1CCN(C(=O)CCn2c(=O)c3cccn3c3cccnc32)CC1	1.6	-6.1	0.5	-7.5	x	0.2	0.678
COc1ccc(N2CCN(C(=O)Cn3c(=O)[nH]c4ccsc4c3=O)CC2)cc1	0.7	4.5	0.0	1.0	6.1%	1.3	0.691
O=C(Nc1ccc(S(=O)(=O)Nc2ccccn2)cc1)c1cccc(Cl)c1	2.3	3.9	-0.8	1.1	x	6.2	0.724
CCOC(=O)c1c(C)nc(C)c(C(=O)OCC)c1-c1cccc(N)c1	0.2	-1.9	0.1	1.6	-1.6%	8.3	0.672
Cc1ccc(C(=O)C2CCN(CC(=O)NC3CCCC3)CC2)cc1	0.1	14.8	-0.2	0.2	x	0.6	0.679
CC(OC(=O)Cc1ccsc1)C(=O)Nc1ccc(Cl)cn1 (stereo not drawn)	0.8	1.8	-0.1	5.0	-1.0%	1.3	0.712
CCOC(=O)C1=C(CS(=O)(=O)c2ccc(C)c(C)c2)NC(=O)NC1c1ccc(O)cc1 (stereo not drawn)	-2.4	-2.6	0.0	3.0	3.6%	-3.2	0.71
CCN1C(=O)c2ccccc2Sc2ccc(C(=O)NCCC(C)C)cc21	-0.6	-4.5	0.5	1.2	x	-0.9	0.615
CCC(CC)c1nnc(NC(=O)c2ccc3c(c2)OCO3)s1	1.9	19.1	-0.2	4.3	x	7.9	0.694
CC(=O)c1cccc(NC(=O)CSc2nc3ccccc3c(=O)n2CCCN2CCOCC2)c1	6.0	-1.3	-0.3	2.9	x	-0.6	0.688
Next section:
SMILES	HNF4A DNA FP	B2AR ag	A1 inh	UCH37 DUB inh	Vif TR-FRET	LANA-H2B inh	E coli growth
CCc1ccccc1NC(=O)CN(C)C(=O)c1cc(C2CC2)nn1-c1ccccc1	-5.3	-6.3	-1.0	2.3	0.2%	-3.1	0.651
COCc1nnc(NC(=O)CCN2C(=O)c3ccccc3C2=O)s1	0.6	9.1	-0.3	1.1	3.8%	16.0*	0.744
COc1ccc(-c2nnc(SCC(=O)c3cc(C)n(Cc4cccs4)c3C)o2)cc1	0.0	4.6	-0.2	-0.1	12.2%	-11.0	0.657
CC(C)CCNC(=O)C(CC(C)C)N(Cc1ccc2c(c1)OCO2)C(=O)c1snc(C(N)=O)c1N (stereo not drawn)	1.1	-5.5	-0.3	-7.0	-9.3%	-2.9	0.702
CCOC(=O)C1CCN(Cc2coc3c(Cl)cc(Cl)cc3c2=O)CC1	4.4	-4.7	0.9	-1.5	-8.3%	0.6	0.665
CN(CC(=O)Nc1cccc(F)c1)CC(=O)Nc1cccc2ccccc12	-1.2	-3.9	-0.7	-1.1	x	-2.0	0.68
COc1ccc(Cn2nnnc2C(c2cc3ccc(OC)cc3[nH]c2=O)N2CCCCCC2)cc1 (stereo not drawn)	0.5	9.8	-0.3	-16.1	-0.8%&-6.8%	3.8	0.672
COc1cccc(N=Nc2c(N)[nH]n3c(=O)cc(-c4ccccc4)nc23)c1	-6.1	-6.6	-0.4	10.8	0.5%	1.4	0.803
COc1ccc(NS(=O)(=O)c2ccc3oc(SC(C)C(N)=O)nc3c2)cc1 (stereo not drawn)	3.1	4.5	0.2	2.0	x	-11.5	0.695
COC(=O)c1ccn(-c2nc(-c3ccco3)cc(C(F)(F)F)n2)n1	2.3	0.0	-0.3	-34.6	-3.4%	3.9	0.685
CC(C)(C)C(=O)Nc1nnc(SCC(=O)Nc2ccc3c(c2)OCO3)s1	2.0	-1.1	-0.8	1.5	x	2.2	0.682
COc1ccc(-c2nc(SCC(=O)NC3CCCCC3)n[nH]2)cc1	1.6	-4.7	1.0	5.3	x	75.9*	0.733
CCCCC(=O)Nc1nc(C)c(C(C)=O)s1	-4.7	-7.9	0.4	4.3	-9.9%	3.5	0.761
CCOC(=O)c1c(-c2ccc(OC)cc2)nc2nonc2c1N	3.6	-3.5	-1.0	2.1	21.4%	-5.5	0.71
CN(C)CCCN(C(=O)c1cccs1)c1nc(-c2ccccc2)cs1	-1.3	4.6	0.1	3.2	13.6%	-3.0	0.713
Cc1[nH]nc(-c2ccc(OCc3cnn(-c4ccccc4)c3)c(C)c2O)c1Oc1ccccc1	1.1	-0.3	0.4	1.6	3.5%	-1.8	0.778
Cc1cc(C(=O)NCC(=O)OCC(=O)Nc2ccc(OC(F)F)cc2)ccc1[N+](=O)[O-]	-2.0	15.8	-0.4	1.0	-8.1%	-0.4	0.672
Cc1ccc(NC(=O)COn2nnc3ccc(S(=O)(=O)N(C)C)cc32)cc1F	2.5	14.1	-0.8	1.4	6.6%	-4.4	0.73
Cc1c(/C(O)=C2\C(=O)C(=O)N(CCN(C)C)C2c2cccnc2)cnn1-c1ccccc1 (stereo not drawn)	0.2	-1.8	-0.2	13.4	-6.0%	3.6	0.757

Random draw from the library. Share with any hit: about 2.1%.
